# STAT3 binder: binders of human STAT3; P40763; Small molecule microarray, His-STAT3 binding, anti-His fluorescence; calls only; 17,000 compounds, 0.2% hits; AID 624138;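 active = compounds whose four printed spots each show fluorescence over background unusually high for their array block, chance value under 7%; compounds were printed on slides so no solution concentration is given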;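 note: about 2 pmol printed per array spot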
# Target sequence (P40763 whole entry, looked up): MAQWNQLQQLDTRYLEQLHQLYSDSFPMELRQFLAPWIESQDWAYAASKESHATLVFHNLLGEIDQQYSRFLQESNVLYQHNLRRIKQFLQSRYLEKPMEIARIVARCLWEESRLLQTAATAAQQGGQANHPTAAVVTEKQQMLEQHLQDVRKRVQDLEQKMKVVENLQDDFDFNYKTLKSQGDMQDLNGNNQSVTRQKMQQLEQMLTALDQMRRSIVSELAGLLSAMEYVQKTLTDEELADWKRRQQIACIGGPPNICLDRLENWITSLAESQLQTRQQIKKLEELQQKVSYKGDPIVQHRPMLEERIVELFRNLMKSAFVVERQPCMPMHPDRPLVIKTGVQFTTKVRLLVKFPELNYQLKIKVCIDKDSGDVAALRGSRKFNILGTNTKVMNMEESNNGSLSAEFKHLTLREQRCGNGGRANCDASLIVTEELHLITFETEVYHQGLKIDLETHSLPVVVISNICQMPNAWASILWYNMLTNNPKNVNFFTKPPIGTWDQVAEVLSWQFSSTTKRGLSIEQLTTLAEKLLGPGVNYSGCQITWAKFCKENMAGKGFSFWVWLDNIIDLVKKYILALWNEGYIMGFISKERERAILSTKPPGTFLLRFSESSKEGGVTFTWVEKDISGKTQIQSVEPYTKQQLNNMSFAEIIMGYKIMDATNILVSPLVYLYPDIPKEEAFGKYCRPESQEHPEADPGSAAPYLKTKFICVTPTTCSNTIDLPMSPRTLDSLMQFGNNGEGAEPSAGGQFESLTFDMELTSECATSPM
# mut p53 SMM: mutant p53 (human) binding; calls only; small molecule microarray binding, anti-GST fluorescence; 17,000 compounds, 0.4% hits;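 active = compounds whose four printed spots each glow above background more than chance allows, each with a p-value under 7%; compounds were printed on slides so no solution concentration is given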;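 note: about 2 pmol printed per array spot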
# Myc binder: binds human c-Myc on microarray | 17,000 compounds, 1.5% hits | small molecule microarray, His-c-Myc binding, anti-His fluorescence | calls only | P01106;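 active = spot fluorescence over background with P-value below 7% in all four replicate spots, showing protein binding; compounds were printed on slides so no solution concentration is given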;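 note: score is binary with 100 for all four spots passing and 0 otherwise; about 2 pmol printed per array spot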
# ID4 binder: binders of human ID4 protein; P47928; small molecule microarray, Flag-ID4 binding, fluorescence F/B; calls only; 31,000 compounds, 1.2% hits; AID 624137;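 active = spot signal over background at p below 0.07 in all four prints; compounds were printed on slides so no solution concentration is given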;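 note: a binder raises fluorescence above local background on the spot; about 2 pmol printed per array spot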
# Target sequence (P47928 whole entry, looked up): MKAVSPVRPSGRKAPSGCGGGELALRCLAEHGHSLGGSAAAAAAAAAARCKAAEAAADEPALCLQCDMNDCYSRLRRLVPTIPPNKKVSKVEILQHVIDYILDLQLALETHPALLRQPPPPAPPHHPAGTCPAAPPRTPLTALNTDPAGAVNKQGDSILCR
# Calls only; i = inactive; · = no result given; + = active, no number.
# The line under a structure holds: STAT3 binder	mut p53 SMM	Myc binder	ID4 binder
CCC(C)/C=C/C1=CC2=C(Cl)C(=O)C3(C)OC(=O)C(C(=O)C(C)C(C)O)C3C2=CO1 (stereo not drawn)
 : i	i	i	i
Cc1noc(C)c1NC(=O)N(C)C[C@@H]1OCCCC[C@H](C)Oc2ccc(NC(=O)CCC(F)(F)F)cc2C(=O)N([C@@H](C)CO)C[C@@H]1C
 : i	i	i	i
COc1ccc(NC(=O)Nc2ccc3c(c2)CC(=O)N([C@@H](C)CO)C[C@H](C)[C@H](CN(C)S(=O)(=O)c2ccc(C)cc2)O3)cc1
 : i	i	i	i
O=C1CC(Sc2nnc(-c3ccccc3O)o2)C(=O)N1c1ccccc1 (stereo not drawn)
 : i	i	i	i
C[C@@H]1CN([C@@H](C)CO)C(=O)c2cc(N(C)C)ccc2O[C@H]1CN(C)C(=O)NC1CCCCC1
 : i	i	i	i
COCCOC(=O)N1C(=O)[C@@]2(c3ccccc31)[C@H](C(=O)N1CCc3cc(OC)c(OC)cc3C1)[C@H]1C(=O)O[C@H](c3ccccc3)[C@H](c3ccccc3)N1[C@@H]2c1ccccc1OCCO
 : i	i	i	i
C[C@H](CO)N1C[C@H](C)[C@H](CN(C)C(=O)Nc2cccc3ccccc23)Oc2ncc(-c3ccc(F)cc3)cc2C1=O
 : i	i	i	i
C[C@@H]1CN([C@H](C)CO)C(=O)c2cc(NC(=O)C3CC3)ccc2O[C@@H]1CN(C)C
 : i	i	i	i
COc1ccc(COC[C@@]23Oc4ccccc4[C@@H](NC(=O)N2C)[C@H]3COC(=O)c2ccc([N+](=O)[O-])cc2)cc1
 : i	i	i	i
O=C(C1=C[C@H](c2ccc(C(F)(F)F)cc2)C[C@H](OCc2ccc(CO)cc2)O1)N1CCCC1
 : i	i	i	i
O=C(Nc1ccccc1)N[C@@H](Cc1ccccc1)Cn1cc(CN2C(=O)COC[C@H]2c2ccccc2)nn1
 : i	i	i	i
C[C@@H]1CCCCO[C@H](CN(C)S(=O)(=O)c2cn(C)cn2)[C@H](C)CN([C@H](C)CO)C(=O)c2cc(NS(C)(=O)=O)ccc2O1
 : i	i	i	+
CC(C)NC(=O)Nc1ccc2c(c1)C(=O)N([C@H](C)CO)C[C@H](C)[C@@H](CN(C)Cc1ccc(C(=O)O)cc1)OCCCC[C@H](C)O2
 : i	i	i	i
C[C@@H]1CN([C@H](C)CO)C(=O)c2cccc(NC(=O)c3ccncc3)c2O[C@@H]1CN(C)S(=O)(=O)c1ccc(F)cc1
 : i	i	i	i
COc1ccc([C@@H]2Oc3c(OC)cc(CCCO)cc3[C@H]2CO)cc1OC
 : i	i	i	·
COC(=O)c1cc(O)cc(OC)c1Oc1cc(C)cc(O)c1C(=O)OC
 : i	i	i	·
C[C@@H]1CN([C@@H](C)CO)C(=O)c2cc(NC(=O)c3ccccc3)ccc2O[C@@H](C)CCCCO[C@@H]1CN(C)S(=O)(=O)c1cn(C)cn1
 : i	i	i	i
CC(=O)c1cccc(NC(=O)CCN2C(=O)C3CC=C(Cl)CC3C2=O)c1 (stereo not drawn)
 : i	i	i	i
C[C@@H]1CN([C@@H](C)CO)C(=O)Cc2cc(NC(=O)NC3CCCCC3)ccc2O[C@H]1CN(C)C(=O)NC1CCCCC1
 : i	i	i	i
Cc1sc2nc(SCc3cc(=O)[nH][nH]3)nc(N)c2c1C
 : i	i	i	i
Cn1c(SCC(=O)O)nnc1-c1ccccc1
 : i	i	i	i
C[C@@H]1CN([C@H](C)CO)C(=O)c2cc(NC(=O)C3CCCCC3)ccc2O[C@@H](C)CCCCO[C@H]1CN(C)C(=O)Nc1ccccc1
 : i	i	i	i
COC(=O)C(C)Sc1nnc2c3ccccc3n(Cc3ccccc3)c2n1 (stereo not drawn)
 : i	i	i	+
Cc1sc2ncnc(SCC(=O)N3CCOCC3)c2c1-c1ccc(Cl)cc1
 : i	i	i	i
C[C@H](CO)N1C[C@H](C)[C@@H](CN(C)S(=O)(=O)c2ccccc2)OCCCC[C@H](C)Oc2ccc(NC(=O)CCCN(C)C)cc2C1=O
 : i	i	i	i
C[C@@H]1CN([C@H](C)CO)C(=O)c2cc(NS(=O)(=O)c3cn(C)cn3)ccc2O[C@@H](C)CCCCO[C@@H]1CN(C)S(=O)(=O)c1cn(C)cn1
 : i	i	i	i
CNC[C@@H]1Oc2ccc(NC(=O)c3ccncc3)cc2C(=O)N([C@@H](C)CO)C[C@H]1C
 : i	i	i	i
COc1cc(/C=C/C(=O)OC2CC3CCC2(C)C3(C)C)ccc1O (stereo not drawn)
 : i	i	i	·
C[C@H](CO)N1C[C@H](C)[C@H](CN(C)CC2CC2)Oc2c(NS(=O)(=O)c3cn(C)cn3)cccc2C1=O
 : i	i	i	i
CC(=O)c1cccc(N(CC(=O)O)S(C)(=O)=O)c1
 : i	i	i	i
CNC[C@@H]1Oc2ccc(NC(=O)Cn3cnnn3)cc2CC(=O)N([C@H](C)CO)C[C@@H]1C
 : i	i	i	i
COc1ccc([Si](C)(C)[C@@H]2[C@@H](CCn3cc(CCO)nn3)O[C@]3(C(=O)N(C)c4c(Br)cc(C)cc43)[C@H]2C)cc1
 : i	i	i	i
COc1ccc(S(=O)(=O)Nc2cccc3c2O[C@H](CN(C)Cc2ccc(C(F)(F)F)cc2)[C@H](C)CN([C@@H](C)CO)C3=O)cc1
 : i	i	i	i
CCC(Sc1nnc(-c2ccccc2)n1-c1ccccc1)C(=O)Nc1ccc(Cl)cc1 (stereo not drawn)
 : i	i	i	i
C[C@H](CO)N1C[C@H](C)[C@@H](CN(C)C(=O)Nc2ccccc2)Oc2c(NC(=O)c3ccc(-c4nccs4)cc3)cccc2C1=O
 : i	i	i	i
Cc1sc2ncnc(SCC(=O)c3ccc(Cl)cc3)c2c1C
 : i	i	i	i
Cc1noc(C)c1NC(=O)N(C)C[C@H]1Oc2ccc(NC(=O)Nc3ccc4c(c3)OCO4)cc2CC(=O)N([C@@H](C)CO)C[C@@H]1C
 : i	i	i	i
C[C@@H]1CN([C@@H](C)CO)C(=O)Cc2cc(NC(=O)CCC(F)(F)F)ccc2O[C@H]1CN(C)C(=O)Nc1cccc2ccccc12
 : i	i	i	i
C[C@H](CO)N1C[C@H](C)[C@H](CN(C)Cc2ccccc2)OCCCC[C@H](C)Oc2ccc(NS(=O)(=O)c3cn(C)cn3)cc2C1=O
 : i	i	i	i
C=CCOC(=O)C1=C[C@H](c2csc3ccccc23)C[C@H](OCCCCO)O1
 : i	i	i	·
COc1ccc(S(=O)(=O)N(C)C[C@@H]2Oc3ccc(NC(=O)Nc4ccc5c(c4)OCO5)cc3C(=O)N([C@@H](C)CO)C[C@H]2C)cc1
 : i	i	i	i
Cc1ccc(S(=O)(=O)N(C)C[C@H]2Oc3ccc(NC(=O)Nc4c(C)noc4C)cc3C(=O)N([C@H](C)CO)C[C@H]2C)cc1
 : i	i	i	·
C=Cc1ccc(O[C@@H]2O[C@H](CO[C@@H]3O[C@@H](C)[C@H](O)[C@@H](O)[C@H]3O)[C@@H](O)[C@H](O)[C@H]2O)cc1
 : i	i	i	i
C[C@@H]1O[C@@H](O[C@@H]2[C@@H](O)[C@H](C)O[C@@H](OCC3OC(Oc4c(-c5ccc(O)c(O)c5)oc5cc(O)cc(O)c5c4=O)C(O)C(O)C3O)[C@@H]2O)[C@H](O)[C@H](O)[C@H]1O (stereo partly drawn)
 : i	i	i	·
O=C(CCC1COc2ccccc2O1)Nc1cccnc1 (stereo not drawn)
 : i	i	i	i
C/C(=C\CC[C@@H](C)[C@H]1CC(OC2OCC(O)C(O)C2O)[C@@]2(C)C3CC[C@H]4C(C)(C)[C@@H](O[C@@H]5OC(CO)C(O)C(O)C5OC5OC(CO)C(O)C(O)C5O)CC[C@@]45C[C@@]35CC(O)[C@]12C)C(=O)OC1OC(CO)C(O)C(O)C1O (stereo partly drawn)
 : i	i	i	i
Cc1ccc(NC(=O)COc2ccc(CO)cc2Cl)cc1
 : i	i	i	i
CCOc1ccccc1CNCCN1CCOCC1
 : i	i	+	i
C[C@H](CO)N1C[C@H](C)[C@H](CN(C)Cc2ccncc2)Oc2c(NS(=O)(=O)c3ccc(Cl)cc3)cccc2C1=O
 : i	i	i	i
C[C@@H]1CN([C@@H](C)CO)C(=O)c2cc(NC(=O)Nc3ccccc3)ccc2O[C@@H](C)CCCCO[C@@H]1CN(C)C(=O)Cc1ccccc1
 : i	i	i	i
COc1ccc(S(=O)(=O)Nc2ccc3c(c2)CC(=O)N([C@@H](C)CO)C[C@H](C)[C@@H](CN(C)Cc2ccc(Cl)c(Cl)c2)O3)cc1
 : i	i	i	·
Cc1ccc(NS(=O)(=O)c2cc(C(=O)Nc3ccccc3C(=O)N3CCCC3)ccc2C)c(C)c1
 : i	i	i	i
COc1ccc(S(=O)(=O)N(C)C[C@@H]2Oc3ncc(C#CC(C)(C)O)cc3C(=O)N([C@H](C)CO)C[C@@H]2C)cc1
 : i	i	i	i
COc1ccc(Cl)cc1NC(=O)CSc1n[nH]c(-c2ccccc2)n1
 : i	i	i	i
COc1cc(CO)cc(I)c1O[C@H]1C=C(C(=O)NCCO)C[C@@H](N(CC2CCCCC2)C(=O)c2ccc(C(F)(F)F)cc2)[C@@H]1O
 : i	i	i	·
Cc1ccc([N+](=O)[O-])cc1NC(=O)CN(c1ccc(I)cc1)S(C)(=O)=O
 : i	i	i	i
C[C@H]1CN([C@@H](C)CO)C(=O)c2cc(NC(=O)Nc3ccc4c(c3)OCO4)ccc2O[C@H]1CN(C)C(=O)Nc1ccc2c(c1)OCO2
 : i	i	i	i
N#Cc1c(C(F)(F)F)cc(-c2ccco2)nc1SCc1ccccn1
 : i	i	i	i
COc1ccccc1CN1CC(C(=O)O)CC1=O (stereo not drawn)
 : i	i	+	i
COC(=O)C1=CO[C@@H](OC2OC(O)C(O)C(O)C2CO)[C@H]2[C@@H]1C=CC21C=C([C@H](C)O)C(=O)O1 (stereo partly drawn)
 : i	i	i	i

# (continued)
# The line under a structure holds: STAT3 binder	mut p53 SMM	Myc binder	ID4 binder
CC(C)NC(=O)N(C)C[C@H]1OCCCC[C@@H](C)Oc2ccc(NC(=O)Nc3cccc4ccccc34)cc2C(=O)N([C@H](C)CO)C[C@@H]1C
 : i	i	i	i
CC1CCC(O)C2C=CC(C)(O)C(C)(C(=O)CCO)C12 (stereo not drawn)
 : i	i	i	i
C[C@@H]1CN([C@@H](C)CO)C(=O)c2cc(NC(=O)NC3CCCCC3)ccc2O[C@@H]1CN(C)C(=O)Nc1ccccc1
 : i	i	i	i
C[C@@H]1CN([C@@H](C)CO)C(=O)c2cc(NC(=O)CCCN(C)C)ccc2O[C@@H]1CN(C)C
 : i	i	i	i
Cc1noc(C)c1S(=O)(=O)N(C)C[C@H]1Oc2ccc(NC(=O)CCCN(C)C)cc2C(=O)N([C@H](C)CO)C[C@H]1C
 : i	i	i	i
O=C(COc1ccc(Br)cc1)Nc1cccc(NC(=O)c2ccc(Cl)cc2Cl)c1
 : i	i	i	i
C[C@H](CO)N1C[C@H](C)[C@@H](CN(C)Cc2ccc(C(=O)O)cc2)Oc2c(NC(=O)c3nc4ccccc4s3)cccc2C1=O
 : i	i	i	·
C[C@H]1CN([C@@H](C)CO)C(=O)c2cccc(NC(=O)Nc3ccc(F)cc3)c2O[C@@H]1CN(C)C(=O)NC1CCCCC1
 : i	i	i	i
CN(CC(=O)Nc1cccnc1)S(=O)(=O)c1ccccc1
 : i	i	i	i
CNC[C@H]1OCCCC[C@@H](C)Oc2ccc(N)cc2C(=O)N([C@@H](C)CO)C[C@@H]1C
 : i	i	i	i
C[C@@H]1CN([C@H](C)CO)C(=O)c2cccc(NC(=O)C3CCOCC3)c2O[C@H]1CN(C)CC1CC1
 : i	i	i	i
C=CC(C)(C)[C@@]12CC(=O)C(=O)N3/C(=C/c4cnc[nH]4)C(=O)N[C@]31N(OC)c1ccccc12
 : i	i	i	i
CC(C)NC(=O)Nc1cccc2c1O[C@H](CN(C)Cc1ccc(C(F)(F)F)cc1)[C@@H](C)CN([C@@H](C)CO)C2=O
 : i	i	i	i
C=C(C(=O)O)C1CCC2(C)CCCC(C)(O)C2C1 (stereo not drawn)
 : i	i	i	·

# Screening results as filed in PubChem.

# A portion of the library; rates above refer to the full screens.
